EPAC2 ant val: validation of human EPAC2 antagonists. Q8WZA2. EPAC2 Rap1B BODIPY-GDP exchange, fluorescence. Potency, µM (top dose mostly 112 µM), without a hit: at the top dose activity, negative = inhibition, most hits filed as inhibitors. 1.7% of 16,000 active. AID 1645886; active = well fitted inhibition curve with a large enough effect; inconclusive = small, poorly fitted or top-dose-only effect; inactive = no such curve, though single readings can be large or run the other way;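 note: 100% = activation by cAMP agonist control; nearly all actives have a fitted effect of over 40% in size; the record reuses the description of the EPAC1 agonist screen; inactives centre near -10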
Target sequence (Q8WZA2 whole entry, looked up): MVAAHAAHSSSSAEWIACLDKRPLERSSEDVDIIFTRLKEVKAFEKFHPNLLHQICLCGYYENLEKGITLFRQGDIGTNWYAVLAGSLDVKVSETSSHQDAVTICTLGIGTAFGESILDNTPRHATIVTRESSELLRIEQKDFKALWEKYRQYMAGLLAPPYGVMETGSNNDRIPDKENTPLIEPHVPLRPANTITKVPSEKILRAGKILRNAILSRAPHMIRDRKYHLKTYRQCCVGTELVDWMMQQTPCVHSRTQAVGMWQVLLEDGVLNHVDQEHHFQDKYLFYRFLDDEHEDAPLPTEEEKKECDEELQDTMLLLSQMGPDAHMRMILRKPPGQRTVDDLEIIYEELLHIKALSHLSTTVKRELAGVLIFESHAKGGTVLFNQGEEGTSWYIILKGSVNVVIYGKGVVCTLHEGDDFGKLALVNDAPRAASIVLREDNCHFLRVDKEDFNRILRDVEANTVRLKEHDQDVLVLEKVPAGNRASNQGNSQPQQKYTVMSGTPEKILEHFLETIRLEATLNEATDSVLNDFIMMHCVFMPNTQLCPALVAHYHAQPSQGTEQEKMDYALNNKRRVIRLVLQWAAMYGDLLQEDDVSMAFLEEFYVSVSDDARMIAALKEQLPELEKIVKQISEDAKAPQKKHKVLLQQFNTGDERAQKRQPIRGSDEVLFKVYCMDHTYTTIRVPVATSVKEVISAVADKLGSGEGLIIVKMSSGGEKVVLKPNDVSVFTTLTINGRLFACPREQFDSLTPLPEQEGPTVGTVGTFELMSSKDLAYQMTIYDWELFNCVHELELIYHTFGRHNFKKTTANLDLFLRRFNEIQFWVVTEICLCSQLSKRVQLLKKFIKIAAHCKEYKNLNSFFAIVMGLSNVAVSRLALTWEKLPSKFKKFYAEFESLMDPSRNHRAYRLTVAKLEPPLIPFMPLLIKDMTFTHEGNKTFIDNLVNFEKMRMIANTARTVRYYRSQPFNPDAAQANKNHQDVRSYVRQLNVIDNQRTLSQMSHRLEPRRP
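Normalized against a 6.5 mM cAMP agonist control, compounds were tested on 100 nM EPAC2 exchanging Rap1B-bound BODIPY-GDP (250 nM) for 50 uM GDP. Fluorescence drop (ex 480, em 540 nm) was tracked at room temperature over 30 min at 5-min intervals.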
Active calls of the source: *; u = inconclusive; & = joins results of further samples; [ ] = another dose, or the depositor's remark. Potency is the fitted concentration of half-maximal effect. The list is partial. The share of hits here may be higher or lower than overall.

No. | structure | EPAC2 ant val
1 | N#CCCn1c(=O)c(-c2ccc(Cl)cc2)nc2cnc(N3CCNCC3)nc21 | -51%
2 | NC(=O)c1cnccn1 | -11%&-6%&-5%
3 | COc1cc(-c2coc3cc(O[C@H]4OC(CO)C(O)C(O)C4O)c(OC)c(O)c3c2=O)cc(O)c1OC (stereo not given in full) | -7%
4 | Nc1[nH]c(=O)ncc1F | 5%[56.6 µM]
5 | COc1cc(C=C2CCC/C(=C\c3ccc(O)c(OC)c3)C2=O)ccc1O | -2%
6 | COc1cc(=O)n2c(c1C(=O)N(C)Cc1nonc1C)CCN(C(=O)c1ccc(C)c(C)c1)CC2 | -10%
7 | Cc1cc2c(c(-c3cnccn3)c1)OC(CNC(=O)c1cc(Cl)ccc1F)C2 (stereo not given) | -28%
8 | CCCCCCCC/C=C\C/C=C\C/C=C\CCCC(=O)O | -21%[11.4 µM]
9 | COc1ccccc1CCC(=O)O | -1%
10 | COCc1c(C(=O)N2CCC(N(C)C)C2)cnn1-c1ncc2c(n1)-c1ccccc1CCC2 (stereo not given) | -15%
11 | COc1cccc(-c2ccc(O)c(CNCc3cccc(OC)c3OC)c2)n1 | -7%
12 | COc1ccc(-n2c(=O)c(CCc3ccccc3)nc3cnc(N4CCNCC4)nc32)cc1 | -6%
13 | CN(C)c1ccc(-c2nc(NCCN3CCOCC3)c3ccccc3n2)cc1 | -15%
14 | COCCn1c(=O)c(-c2ccc(F)cc2)nc2cnc(Oc3ccc(OC)cc3)nc21 | -35%
15 | CC(/C=C/C=C(\C)C(=O)O[C@@H]1O[C@H](CO[C@@H]2O[C@H](CO)[C@@H](O)[C@H](O)[C@H]2O)[C@@H](O)[C@H](O)[C@H]1O)=C\C=C\C=C(C)\C=C\C=C(/C)C(=O)O[C@@H]1O[C@H](CO[C@@H]2O[C@H](CO)[C@@H](O)[C@H](O)[C@H]2O)[C@@H](O)[C@H](O)[C@H]1O | 6%
16 | N[C@H](Cc1ccc(O)cc1)C(=O)O | 1%
17 | COc1cc(=O)n2c(c1C(=O)NC(C)c1ccco1)CCN(Cc1cc(C)ccc1C)CC2 (stereo not given) | -6%
18 | COc1ccc(Oc2ncc3nc(-c4cccs4)c(=O)n(C)c3n2)cc1 | -26%
19 | O=C(O)[C@H]1CN(CCCP(=O)(O)O)CCN1 | -21%&-11%
20 | CC(C)NC(=O)N1CC2(CCN(C(=O)c3ccncc3)CC2)C1 | -10%
21 | O=C(O)C1CC[C@@](C(=O)O)(c2ccccc2)c2ccccc21 (stereo not given in full) | 13%
22 | Cc1cc(C)n(-c2ccc(C(=O)N3CCc4c(cnc(C)c4CNC(=O)c4ccccc4F)C3)cc2)n1 | -19%
23 | COCCN1CCN(C(=O)c2cnn(-c3nccc(-c4cc5ccccc5o4)n3)c2C2CC2)CC1 | -3%
24 | COc1ccc(CN2CCCC(n3cc(C(=O)N4CCCCC4)nn3)C2)c(OC)c1OC (stereo not given) | -13%
25 | Cc1oc(-c2ccccc2NC(=O)C2CCC2)nc1CNC(=O)c1cccc(C(F)(F)F)c1 | -36%
26 | O=C(Nc1cccc(F)c1)N1CC2(CCN(C(=O)c3csnn3)CC2)C1 | -28%
27 | CC(CCc1ccccc1)NCC(O)c1ccc(O)c(C(N)=O)c1 (stereo not given) | -5%&-6%&2%
28 | O=S(=O)(c1cccc2cnccc12)N1CCNCC1 | -27%
29 | COCCn1c(=O)c(CCc2ccccc2)nc2cnc(N3CCNCC3)nc21 | -12%
30 | CN(C)c1ccc(-c2cc(NCc3ccccc3)ncn2)cc1 | -13%
31 | CN1CCC(=O)N([C@H](COc2ccccc2)Cc2ccccc2)CC1 | -13%
32 | COC(=O)[C@@H]1CCCN1Cc1ccc2c(c1)CN(Cc1ccc3c(c1)CCCN3C)CCO2 | -26%
33 | O=c1[nH]cnc2[nH]ncc12 | -25%&33%&-10%
34 | Cc1cc(NC(=O)Nc2ccc(N(C)C)cc2)c2cc(F)cc(F)c2n1 | -29%
35 | CCOC(=O)c1c(C)cc(OC)cc1O | u
36 | O=C(O)c1ccc(OCCCOc2ccc(C(=O)O)cc2)cc1 | 23%
37 | CC(=O)c1ccc(F)c(-c2cc(C)cc3c2OC(CNC(=O)c2csc(C)n2)C3)c1 (stereo not given) | -32%
38 | O=c1c(CCc2ccccc2)nc2cncnc2n1C1CC1 | u
39 | C=C(C)C1(O)OC(=O)C=C1OC (stereo not given) | -21%
40 | CCC1CN(CC(=O)NC(C)c2cn(C)nc2C)Cc2cc(OC)ccc2O1 (stereo not given) | -5%
41 | C[C@H]1CN(C2CCCCC2)C(=O)[C@@H]1CC(=O)NCc1ccccc1 | -21%
42 | COc1ccccc1CCc1nc2ccccc2n1C1CCN(C(=O)c2cc(C)nn2C)CC1 | -5%
43 | CCNc1ncc2nc(-c3cn(C)c4ccccc34)c(=O)n(Cc3cccc(OC)c3)c2n1 | 1%
44 | O=C(O)CCCCC1CCSS1 (stereo not given) | u
45 | Nc1c[n+](N2CCOCC2)no1 | 19%

Along the list, as entered above.
EPAC2 ant val for entries 33–40, in order: -25%&33%&-10%, -29%, u, 23%, -32%, u, -21%, -5%

(further entries)
No. | structure | EPAC2 ant val
46 | CCOC(=O)C(CCc1ccccc1)NC(C)C(=O)N1C(C(=O)O)CC2CCCC21 (stereo not given) | -10%
47 | CC(C)CN1CCCC2(CCN(S(=O)(=O)c3ccccc3)CC2)C1 | -13%
48 | Cc1noc(C)c1-c1cncnc1N(C)Cc1ccco1 | -15%
49 | CC(C)(C)c1ccc(C(=O)CCCN2CCC(OC(c3ccccc3)c3ccccc3)CC2)cc1 | -20%&-20%
50 | OCC(O)COc1ccc(Cl)cc1 (stereo not given) | -13%
51 | CCOC(=O)Nc1ccc2c(c1)N(C(=O)CN(C)C)c1ccccc1CC2 | 1%[239 µM]
52 | CCOC(=O)C[C@H]1c2ccccc2S(=O)(=O)N1c1cccc(OC)c1 | u
53 | COC(=O)N1c2ccccc2C23[C@@H]4CN5CCC[C@]6(CCC12C(O)(C6)C4=O)[C@H]53 | -1%
54 | C#C[C@]1(O)CC[C@@H]2[C@H]3CCC4=CC(=O)CC[C@H]4[C@H]3C(=C)C[C@@]21CC | -15%
55 | CC(=O)OCC(OC(C)=O)C(OC(C)=O)C(OC(C)=O)C(OC(C)=O)C(COC(C)=O)OC(C)=O (stereo not given) | -2%
56 | CC(C)(C)C(=O)NCCCC(=O)O | 1%
57 | CC(C)[C@@H](CSc1ccccc1)N1CCN(Cc2ccccc2)CCC1=O | 5%
58 | CC(C)c1ccc(C(=O)C[N+]2(C)CCOCC2)cc1 | 28%
59 | c1cncc(-c2cncnc2NC2CCNCC2)c1 | -1%
60 | COc1ccc(NC(=O)N2CCC3(CC2)CCN(C(=O)c2ccncc2)CC3)cc1 | -17%

Next part, starting with the last 4 of the part before.
No. | structure | EPAC2 ant val
57 | CC(C)[C@@H](CSc1ccccc1)N1CCN(Cc2ccccc2)CCC1=O | 5%
58 | CC(C)c1ccc(C(=O)C[N+]2(C)CCOCC2)cc1 | 28%
59 | c1cncc(-c2cncnc2NC2CCNCC2)c1 | -1%
60 | COc1ccc(NC(=O)N2CCC3(CC2)CCN(C(=O)c2ccncc2)CC3)cc1 | -17%
61 | CC(=O)OCC1OC(n2cnc3c(=O)[nH]cnc32)C(OC(C)=O)C1OC(C)=O (stereo not given) | -2%
62 | COc1ccc(-c2coc3ccc(OC4OC(COC(C)=O)C(OC(C)=O)C(OC(C)=O)C4OC(C)=O)cc3c2=O)cc1 (stereo not given) | -11%
63 | O=C(c1ccco1)N1CCC2(CC1)CN(c1ccccc1)C2 | u
64 | CCn1c(-c2ccccc2F)nc2cc(NC(C)=O)cc(C(=O)NCC3CCOCC3)c21 | u
65 | O=C(c1cc2ccccc2o1)N1CCN(Cc2ccccc2)CC1 | 1%
66 | Cc1ccccc1-c1cncnc1NCc1cccs1 | u
67 | c1ccc(CNc2ncncc2-c2ccoc2)cc1 | -6%
68 | CCC(=O)NCCC1CCc2ccc3c(c21)CCO3 (stereo not given) | -17%
69 | O=C(c1csnn1)N1CCC2(CC1)CN(c1ccccc1)C2 | -9%
70 | COc1ccc(-n2c(=O)c(-c3cn(C)c4ccccc34)nc3cnc(N4CCNCC4)nc32)cc1 | -5%
71 | Cc1cn[nH]c1 | 1%&15%
72 | Cc1nc2sccn2c1CN1CCOc2ccc(CN3CCN(c4ccc(F)cc4)CC3)cc2C1 | u
73 | Nc1ncnc2nc(Cl)[nH]c12 | -14%
74 | COC(=O)c1cc(CNC(=O)c2ccccn2)cc(NC(=O)c2ccccc2OC)c1 | u
75 | CC(C)CCOC(=O)c1ccc(N(C)C)cc1 | -6%

Some of these compounds in order of molecular weight, lowest first:
No. | structure | EPAC2 ant val
1 | N#CCCn1c(=O)c(-c2ccc(Cl)cc2)nc2cnc(N3CCNCC3)nc21 | -51%
14 | COCCn1c(=O)c(-c2ccc(F)cc2)nc2cnc(Oc3ccc(OC)cc3)nc21 | -35%
24 | COc1ccc(CN2CCCC(n3cc(C(=O)N4CCCCC4)nn3)C2)c(OC)c1OC (stereo not given) | -13%

Following part:
No. | structure | EPAC2 ant val
76 | CCCCC[C@H](O)/C=C/[C@@H]1[C@@H](CCCCCCC(=O)O)[C@@H](O)C[C@H]1O | -9%[11.4 µM]
77 | C[C@]12C[C@H](O)[C@H]3[C@@H](CCC4=CC(=O)CC[C@@]43C)[C@@H]1CC[C@@H]2C(=O)CO | 1%&-24%
78 | S=c1ccss1 | -11%
79 | O=C1CCC[C@@H]2[C@H](Cc3ccccc3)[C@@H](O)C[C@@H]3CCN1[C@@H]32 | 5%
80 | O=C(c1cnccn1)N1CCC2(CCN(Cc3nccs3)CC2)CC1 | -22%
81 | O=P(O)(O)C(O)(Cn1ccnc1)P(=O)(O)O | -10%
82 | Cc1cnc(C)c(-c2cc(F)cc3c2OC(CNC(=O)C2CCOC2)C3)n1 (stereo not given) | u
83 | CCC[N+](C)(C)c1ccc(/C=C/c2ccncc2)cc1 | u
84 | CC[C@H]1OC(=O)[C@H](C)[C@@H](O[C@H]2C[C@@](C)(OC)[C@@H](O)[C@H](C)O2)[C@H](C)[C@@H](O[C@@H]2O[C@H](C)C[C@H](N(C)C)[C@H]2O)[C@](C)(O)C[C@@H](C)C(=O)[C@H](C)[C@@H](O)[C@]1(C)O | 7%&-16%
85 | COc1ccc(/C=C/C(=O)NCC2Cc3cc(Cl)cc(-c4ncccn4)c3O2)cc1 (stereo not given) | -14%
86 | N#Cc1ccc(CN2CCCC3(CCN(C(=O)c4ccncc4)CC3)C2)cc1 | -19%
87 | CN1CCCC1CCOC(C)(c1ccccc1)c1ccc(Cl)cc1 (stereo not given) | u
88 | CS(=O)(=O)N1CCC2(CC1)CN(C(c1ccccc1)c1ccccc1)C2 | -24%
89 | COc1ccc2c(c1)c1c3n2CCN(C)C3=NCC1 | 14%
90 | C=C1C(=CC=C2CCC[C@]3(C)[C@@H]([C@H](C)C=C[C@H](C)C(C)C)CC[C@@H]23)C[C@@H](O)C[C@@H]1O | -20%

Reprinted at random: three records from the list, in no set order.
No. | structure | EPAC2 ant val
79 | O=C1CCC[C@@H]2[C@H](Cc3ccccc3)[C@@H](O)C[C@@H]3CCN1[C@@H]32 | 5%
83 | CCC[N+](C)(C)c1ccc(/C=C/c2ccncc2)cc1 | u
77 | C[C@]12C[C@H](O)[C@H]3[C@@H](CCC4=CC(=O)CC[C@@]43C)[C@@H]1CC[C@@H]2C(=O)CO | 1%&-24%

The results go on.
No. | structure | EPAC2 ant val
91 | Cc1cc(CC(=O)O)n(C)c1C(=O)c1ccc(Cl)cc1 | -24%&15%
92 | CC(C)C(N)C(=O)OCCOCn1cnc2c(=O)[nH]c(N)nc21 (stereo not given) | -24%
93 | O=C(c1ccccc1F)N(Cc1cc2cc3c(cc2nc1N1CCOCC1)CCC3)CC1CCCO1 (stereo not given) | -41%
94 | CN(C)c1ccc(/C=C/c2cc3ccccc3c[n+]2C)cc1 | -13%
95 | Nc1nc2[nH]cc(CCc3ccc(C(=O)N[C@@H](CCC(=O)O)C(=O)O)cc3)c2c(=O)[nH]1 | 22%
96 | C[C@H]1CC2C3CCC4=CC(=O)C=C[C@]4(C)[C@@]3(Cl)[C@@H](O)C[C@]2(C)[C@@]1(O)C(=O)CO (stereo not given in full) | -16%
97 | CN(Cc1ccco1)c1ncnc2ccc(-c3ccoc3)cc12 | 45µM*
98 | COCCNc1nc(-c2ccccc2C)nc2ccccc12 | -10%
99 | Cc1nc(N=Nc2ccc(C(=O)O)cc2)c(COP(=O)(O)O)c(C=O)c1O | 8%
100 | COCCn1c(=O)cnc2cnc(Oc3ccc(OC)cc3)nc21 | -21%
101 | Cc1nc2cnc(OCc3ccccc3)nc2n(CCC#N)c1=O | -15%
102 | COc1cccc2c(=O)c3ccoc3n(C)c12 | 3%
103 | O=C(Nc1cccc(F)c1)N1CC[C@@]2(CCCN(S(=O)(=O)c3ccccc3)C2)C1 | -23%
104 | O=c1cc(-c2cc3ccccc3oc2=O)c2ccc(O)cc2o1 | 5%
105 | Cc1ccccc1OCC(O)CNCCOc1ccc(C(N)=O)cc1 (stereo not given) | 11%
106 | O=[N+]([O-])c1ccc2nc(CO)[nH]c2c1 | -9%
107 | CC1CC(OC(=O)c2ccccc2O)CC(C)(C)C1 (stereo not given) | 2%&-20%
108 | NC1(C(=O)O)CCc2cc(P(=O)(O)O)ccc21 (stereo not given) | -8%
109 | O=C(NCc1nnc2n1CCN(Cc1ccnc3ccccc13)CC2)c1cccc(F)c1 | u
110 | C=CCn1c(=O)c2c(nc(-c3ccccc3)n2C)n(C)c1=O | 3%
111 | O=C(c1cnccn1)N1CCC[C@@]2(CCN(Cc3cc(C(F)(F)F)cc(C(F)(F)F)c3)C2)C1 | u
112 | Cc1nc2cnc(N3CCN(C)CC3)nc2n(C2CC2)c1=O | -8%

Screens deposited in PubChem BioAssay by National Center for Advancing Translational Sciences (NCATS).
